RN4220 kill – growth inhibition of S. aureus RN4220, primary screen, OD600. inhibition, % (test concentration not listed). 330,000 tested, 0.33% active. 16 h;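 active means z-score of -3 or lower and OD600 up to 0.18 on both plates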;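 further: plate controls were untreated cells for no effect and reference antibiotic for full effect; stock transfer was 100 nL into about 80 µL; one replicate is shown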
Autofluor counter – counter-screen for toxin protease inhibitors: compound fluorescence | compound autofluorescence counterscreen, microsphere flow cytometry; stronger effect = higher value | fluorescence intensity (no concentration beside the values) | 360,000 tested, 3.1% active;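 active means at least 3 SD above the mean of all compounds, about 16000 in these data; inconclusive means too few beads counted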;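 further: 100 nL of 1 mM stock went into each well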
Mtb hypoxia rep – PubChem AID 1159583 | M. tuberculosis hypoxia-regulated fluorescent reporter, fluorescence | fluorescence inhibition, % (no concentration beside the values) | 300,000 tested, 0.1% active;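 active means 35 to 45% if threefold the growth effect, above 45% if 1.5-fold the growth effect; inactive means the rest, general growth blockers included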;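 further: wells of about 50 µL received 100 nL stock; 0% = vehicle wells and 100% = reference inhibitor wells; whole bacteria with a GFP reporter of the hypoxia response; strong numbers were not always called active; many hits fall short of the cut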
PrP UTR inh – inhibition of PrP 5' UTR reporter expression; cell-based PrP 5' UTR mRNA reporter, plate reader; inhibition, % (no concentration beside the values); 340,000 tested, 0.35% active; AID 488862, 2010;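 active means every replicate at 50% or more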;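 further: 0 = median of the neutral control wells; tested in H4 reporter cells; numbers are from one replicate; inactives centre near -14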
BJeLR lethal – MLPCN primary cell-based screen for lethality selective to Ras in HRASV12 cells; BJeLR (HRASV12) viability, CellTiter-Glo ATP luminescence, 48 h; reference of the scale not given here; inhibition, % (no concentration beside the values); 300,000 tested, 0.17% active; AID 1554, 2009;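 active means replicate mean above 50%; inconclusive means above 50% but judged a plate artefact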;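 further: 50 nL library stock added to about 25 µL; numbers are from one replicate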
Sa ugtP lethal – growth inhibition of ugtP-null S. aureus, primary screen, RN4220 ugtP deletion, OD600; 16 h; some inactives read as strong as hits; growth inhibition, % (concentration not given with the values); 330,000 tested, 0.54% active; AID 1259309, 2017;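 active means z-score under -3 and OD600 up to 0.15 on both plates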;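 further: plate controls were untreated wells for no effect and antibiotic for full effect; wells of about 80 µL received 100 nL stock; the first replicate is given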
Mtb hypoxia rep growth – also measured in Mtb hypoxia rep; calls as there; growth inhibition, %; measured here: M. tuberculosis growth (absorbance);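 0% = vehicle and 100% = reference antibiotic; read after six days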
* hit, by the source's call; ? = inconclusive; nt = no result given.

nr | SMILES | BJeLR lethal | Sa ugtP lethal | RN4220 kill | PrP UTR inh | Autofluor counter | Mtb hypoxia rep growth | Mtb hypoxia rep
1 | CC(C)NC(=O)CN1C(=O)c2cccc3cccc1c23 | -3 | 6 | 1.4 | -14 | 3469 | 5 | -5
2 | CC1=NN(C(=O)c2ccccc2Br)C(O)(c2ccc(Cl)cc2)C1 (stereo not given) | -6 | 4 | 1.0 | -11 | 3130 | -6 | 3
3 | CCC(C)N1C(=O)C2C(C(=O)Nc3cccc(OC)c3)C3C=CC2(O3)C1C(=O)NC1CCCCC1C (stereo not given) | nt | 8 | 10 | -3 | 3768 | nt | nt
4 | CC(C)CN(C(=O)COC(=O)c1ccccc1SCC(=O)NC1CCCCCC1)C1CCS(=O)(=O)C1 (stereo not given) | 17 | 1 | 4.3 | -14 | 2422 | 6 | -1
5 | c1ccc2[nH]c(Cn3nnc4ccccc43)nc2c1 | -3 | 7 | 5.3 | -25 | 2997 | 11 | 14
6 | O=C(O)c1ccc(NC(=S)NC(=O)c2cccnc2)cc1 | -11 | 7 | 2.4 | -19 | 3458 | 12 | -4
7 | Nc1nc(-c2cccs2)c(NC(=O)c2ccccc2)s1 | -9 | -8 | 13 | -33 | 9412 | 3 | 0
8 | COc1ccc(C(CNC(=O)Cc2cccs2)N(C)C)cc1 (stereo not given) | -2 | 4 | 2.2 | -11 | 6066 | 1 | 4
9 | NNC(=O)Cn1c(-c2ccccc2)cc(=O)n2ncnc12 | 0 | 0 | 5.2 | -9 | 4629 | 1 | -3
10 | CC1(C)[C@H]2CC[C@]1(C)[C@@H](OC(=O)C[N+]1(C)CCOCC1)C2 | -1 | 6 | 1.4 | -4 | 4661 | -3 | 9
11 | O=C(Oc1ccc(-c2nc(-c3ccccn3)no2)cc1)c1ccccc1 | 62* | -3 | 1.8 | -15 | 3186 | nt | nt
12 | O=C1CC(c2ccccc2)CC(O)=C1C=NCCCO (stereo not given) | -3 | -3 | 1.9 | -11 | 2969 | 9 | 5
13 | CCCc1cc(=O)oc2cc(OCC(=O)NCC(O)c3ccccc3)ccc12 (stereo not given) | 8 | -3 | -2.2 | -1 | 5462 | 6 | 4
14 | Cc1ccc(CNS(=O)(=O)c2ccc(Br)s2)cc1 | 6 | 5 | 7.6 | -17 | 4112 | -5 | -1
15 | CCOc1ccc(S(=O)(=O)N2CCC(C(=O)NCc3ccco3)CC2)cc1C | 2 | 7 | -2.7 | -11 | 3762 | 5 | 7
16 | COc1ccc(-c2cc3nc(-c4ccccc4)cc(N4CCC(O)CC4)n3n2)cc1 | -4 | 90* | -10 | 0 | 2134 | 4 | -5
17 | COc1ccccc1C(=O)NC(=O)Nc1nc(-c2ccccc2)cc(C(F)(F)F)n1 | 10 | 9 | 33 | -9 | 5147 | -3 | -2
18 | CC(=O)c1ccc(N(CC(=O)NC2CCCCC2)C(=O)CNC(=O)c2cccs2)cc1 | -7 | 1 | 1.2 | -14 | 3644 | -3 | -8
19 | COCCCn1c(=C(C#N)C(=O)NC(C)C)sc(=Cc2ccccc2OC(F)F)c1=O | nt | -10 | 9.8 | nt | nt | 0 | 4
20 | Cc1ccc(S(=O)(=O)NCC(=O)OCC(=O)N(C)C2CCCCC2)cc1 | nt | 5 | 3.8 | -7 | 5398 | 5 | 3
21 | O=C(NCCNC(=O)c1cccs1)c1ccco1 | 0 | 4 | 2.1 | -7 | 3756 | 16 | 7
22 | Cc1cccc(NC(=O)CC2C(=O)NC3CCCCC3N2C(=O)c2ccccc2Cl)c1 (stereo not given) | 1 | 4 | 3.1 | 36 | 6065 | -2 | -9
23 | CCCn1c(=O)c2ccccc2n2c(SCC(=O)c3ccccc3)nnc12 | -3 | -18 | 11 | -13 | 5964 | -5 | 0
24 | COCCN(C(=O)C1CCCO1)c1c(N)n(CC(C)C)c(=O)[nH]c1=O (stereo not given) | nt | 2 | 8.2 | -21 | 3946 | -1 | 5
25 | COc1cc(C2Nc3ccc4ncccc4c3C3=C2C(=O)CCC3)ccc1O (stereo not given) | 11 | 12 | 5.5 | -32 | 3425 | nt | nt
26 | Cc1c(Cl)ccc(S(=O)(=O)NCCN2CCOCC2)c1Cl | -5 | 2 | 3.8 | -32 | 3908 | 10 | 11
27 | COc1cc(-c2n[nH]c(=S)n2-c2cc(C(F)(F)F)ccc2Cl)cc(OC)c1OC | -6 | 0 | -1.2 | -1 | 2146 | 4 | 5
28 | O=C(CN1CCCCCC1)Nc1ccccc1Cl | -5 | 0 | 1.8 | 7 | 3318 | 8 | 4
29 | Cc1cccc(NC(=O)CN2CCN(C(=O)c3c(C)nn(Cc4ccccc4)c3C)CC2)c1C | nt | 3 | 2.0 | -17 | 3803 | 1 | -5
30 | O=C(NCc1ccccc1)/C(=C\c1ccc([N+](=O)[O-])cc1)NC(=O)c1ccco1 | -8 | 8 | 1.2 | -12 | 6117 | 12 | 5
31 | O=S(=O)(c1ccc(N2CCOCC2)cc1)N1CCOCC1 | -5 | 6 | 3.7 | -17 | 2912 | nt | nt
32 | COc1cccc2cc(C(=O)N3CCN(C45CC6CC(CC(C6)C4)C5)CC3)c(=O)oc12 | -8 | -2 | 5.3 | -7 | 4400 | 2 | 13
33 | CC(Oc1ccc2c(-c3ccccc3)cc(=O)oc2c1)C(=O)NC(Cc1c[nH]c2ccccc12)C(=O)O (stereo not given) | nt | 12 | -0.1 | -1 | 3612 | -4 | 4
34 | c1ccc(-c2nnc3sc(-c4csc5c4CCCC5)nn23)cc1 | 3 | 0 | 1.9 | -7 | 3007 | nt | nt
35 | N#CC(C#N)=C1CCc2ccccc2N1 | -10 | 5 | 3.6 | -51 | 4559 | 3 | 4
36 | O=C(CN1CCCCC1)NCC(=O)Nc1ccc(Br)cc1C(=O)c1ccccc1 | 5 | 2 | 0.0 | -12 | 3718 | 2 | 4
37 | OC1CCN(c2ncnc3c2nnn3Cc2c(F)cccc2Cl)CC1 | 1 | 5 | 5.9 | -11 | 5009 | 8 | 3
38 | O=C(COC(=O)Cc1ccc(-c2ccccc2)cc1)NCc1ccc(F)cc1 | -3 | 0 | 3.2 | -16 | 2535 | 10 | 3
39 | Clc1cccc(-c2nnc(SC/C=C/c3ccccc3)n2Cc2ccco2)c1 | nt | -21 | -6.3 | -2 | 11453 | 10 | -9
40 | CCc1nn(CC(=O)O)c(=O)c2ccccc12 | 3 | -1 | 4.1 | -12 | 8726 | 3 | -5
41 | N=c1oc2ccc(Cl)cc2cc1C(=O)NC1CCCCCC1 | 2 | 0 | 5.9 | -18 | 5955 | 3 | 2
42 | CC(C)(C)N1C(=O)C2C(c3ccc(Br)cc3)N3C(=O)N(c4ccccc4)C(=O)[C@@]3(Cc3ccccc3)C2C1=O (stereo not given in full) | nt | -6 | 3.1 | nt | nt | 7 | 10
43 | CC(OC(=O)c1cnc2ccccc2n1)c1ccccc1Cl (stereo not given) | -2 | 1 | 3.2 | -47 | 4688 | 3 | -2
44 | Cc1ccc2cc(C#N)c(N3CCCN(C(=O)C4CCCO4)CC3)nc2c1 (stereo not given) | 3 | 2 | 7.9 | -18 | ? | 7 | 11
45 | COc1ccc(-n2cnc3cc(NCc4ccccn4)ccc32)cc1 | -9 | 11 | 11 | -17 | 18683* | -2 | -1
46 | O=[N+]([O-])c1cc(CN2CCCC2)ccc1Sc1ccc(Cl)cc1 | 0 | 4 | -4.7 | -14 | 4319 | nt | nt
47 | CS(=O)(=O)N1CCN(C(=O)c2cc(-c3cccnc3)nc3ccc(Cl)cc23)CC1 | 2 | 15 | 4.5 | -13 | ? | 2 | -1
48 | O=C(CSc1ncnc2sccc12)N1CCN(C(=O)c2cccs2)CC1 | nt | -9 | -5.7 | 87* | 3515 | 1 | -10
49 | O=C1CN(C(=O)N[C@@H](Cc2ccccc2)C(=O)N[C@@H](Cc2ccccc2)C(=O)O)c2ccccc2N1 | -8 | -2 | 2.6 | -21 | 4815 | nt | nt
50 | Cn1c(=O)n(C)c(=O)n(CC(=O)N2CCCCC2)c1=O | 8 | -1 | -0.5 | 5 | 8623 | 0 | -4
51 | CC(C)C=NNC(=O)c1cc(Br)ccc1O | nt | 3 | 12 | nt | nt | 7 | 5
52 | O=C(CN1CCN(S(=O)(=O)c2cccc(Cl)c2)CC1)NCC1(N2CCOCC2)CCCCC1 | nt | 6 | 5.0 | -2 | 8453 | 11 | 4
53 | O=C(Nc1ccccc1C(F)(F)F)c1ccc2nccnc2c1 | 6 | 3 | 3.6 | 0 | 5885 | 2 | 2
54 | O=C(CSc1nncn1-c1ccccc1)NC1CCCC1 | -5 | 0 | 3.2 | -14 | 5109 | 4 | 11
55 | CCOc1ccccc1N1CCN(S(=O)(=O)CC)CC1 | 5 | -1 | 5.6 | -7 | 2684 | 4 | 5
56 | CC(=O)c1cc(F)c(N2CCCCCC2)cc1C | -6 | 9 | 30 | -24 | 3515 | nt | nt
57 | CC1CCCCN1CCNC(=O)C1CCCN(S(=O)(=O)c2cccc3nsnc23)C1 (stereo not given) | 7 | 4 | 3.1 | -8 | 7745 | 3 | 0
58 | CCc1nc2sc3c(c2c(=S)[nH]1)CC(C)(C)OC3 | 9 | 9 | 1.4 | -42 | 3122 | -4 | 9
59 | Cc1nc(SCC(=O)Nc2c(C)n(C)n(-c3ccccc3)c2=O)[nH]c(=O)c1C | -7 | 5 | 5.6 | -12 | 5879 | 7 | 8
60 | Cc1c(NC(=O)CSc2nnc3sc4ccccc4n23)c(=O)n(-c2ccccc2)n1C | 3 | 5 | 0.1 | -18 | 4276 | 5 | 8

Following part:
nr | SMILES | BJeLR lethal | Sa ugtP lethal | RN4220 kill | PrP UTR inh | Autofluor counter | Mtb hypoxia rep growth | Mtb hypoxia rep
61 | Cc1nnsc1C(=O)NC(C)c1ccccc1 (stereo not given) | 5 | 9 | 3.8 | -50 | 4607 | 4 | 6
62 | O=C1NC(=O)C(c2ccccc2[N+](=O)[O-])=C1Nc1ccc(O)c(Cl)c1 | -1 | nt | nt | -17 | 4268 | nt | nt
63 | COCCn1c(SCC(=O)N2CCCC2)nnc1C(C)C | 1 | 5 | 0.8 | -12 | 4712 | nt | nt
64 | NC(=O)N/N=C/c1coc2ccc3ccccc3c2c1=O | 0 | nt | nt | -16 | 5689 | nt | nt
65 | COc1ccccc1C(=O)N/C(=C/c1cccc([N+](=O)[O-])c1)C(=O)Nc1cccc(C(=O)O)c1 | -7 | 4 | 0.5 | -20 | 3303 | -2 | 12
66 | CS(=O)(=O)c1cccc(C(=O)NC(c2ccccc2)c2ccccc2)c1 | -1 | 0 | 2.5 | -23 | 3043 | nt | nt

Random excerpt: 7 records from the list.
nr | SMILES | BJeLR lethal | Sa ugtP lethal | RN4220 kill | PrP UTR inh | Autofluor counter | Mtb hypoxia rep growth | Mtb hypoxia rep
27 | COc1cc(-c2n[nH]c(=S)n2-c2cc(C(F)(F)F)ccc2Cl)cc(OC)c1OC | -6 | 0 | -1.2 | -1 | 2146 | 4 | 5
60 | Cc1c(NC(=O)CSc2nnc3sc4ccccc4n23)c(=O)n(-c2ccccc2)n1C | 3 | 5 | 0.1 | -18 | 4276 | 5 | 8
7 | Nc1nc(-c2cccs2)c(NC(=O)c2ccccc2)s1 | -9 | -8 | 13 | -33 | 9412 | 3 | 0
34 | c1ccc(-c2nnc3sc(-c4csc5c4CCCC5)nn23)cc1 | 3 | 0 | 1.9 | -7 | 3007 | nt | nt
40 | CCc1nn(CC(=O)O)c(=O)c2ccccc12 | 3 | -1 | 4.1 | -12 | 8726 | 3 | -5
11 | O=C(Oc1ccc(-c2nc(-c3ccccn3)no2)cc1)c1ccccc1 | 62* | -3 | 1.8 | -15 | 3186 | nt | nt
47 | CS(=O)(=O)N1CCN(C(=O)c2cc(-c3cccnc3)nc3ccc(Cl)cc23)CC1 | 2 | 15 | 4.5 | -13 | ? | 2 | -1

Source: PubChem BioAssay (several laboratories)
